From PubChem
gsp antag: antagonists of gsp mutant (McCune-Albright syndrome). gsp-mutant cells, cAMP HTRF, 30 min; control for the full effect not named in the record. Potency, µM (doses to about 76.9 µM), for inactives: at the highest dose activity change, negative = inhibition, hits mostly inhibitors. 0.4% of 340,000 active. AID 624288; active = falling curve of any shape with a large fitted effect; inconclusive = falling curve, mostly with a smaller effect; inactive = flat or rising curve; cell line not stated here;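 also: intracellular cAMP measured with PDE inhibitor Ro 20-1724 present during compound exposure; potency is read from the fitted curve at half-maximal effect; % is scaled to controls: 0 for no effect and ±100 for the full control effect; nearly all actives have a fitted effect of over 65% in size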
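Measurement of cellular cAMP by homogeneous time-resolved fluorescence following a 30 min compound exposure at 37C. The PDE inhibitor […] was present throughout; the assay buffer was DPBS with 0.05% BSA and 0.005% Tween 20.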
ClpP mod: qHTS Assay for Activators of ClpP. ATP-dependent Clp protease proteolytic subunit (Bacillus subtilis (strain 168)), P80244. purified B. subtilis ClpP, FRET peptide cleavage, 20 min. Potency, µM (titrated, usually from 57.5 µM), for the others: at the top dose activity change, negative = active. 1.9% of 340,000 active; active = well fitted falling curve with a large enough effect; inconclusive = small, poorly fitted or top-dose-only effect; inactive = no such curve, though single readings can be large or run the other way; also: potency is read from the fitted curve at half-maximal effect; the source files actives as falling curves though it sought activators and does not explain the sign; nearly all actives have a fitted effect of over 65% in size; many hits overshoot -100%
Target sequence (P80244 whole entry, looked up): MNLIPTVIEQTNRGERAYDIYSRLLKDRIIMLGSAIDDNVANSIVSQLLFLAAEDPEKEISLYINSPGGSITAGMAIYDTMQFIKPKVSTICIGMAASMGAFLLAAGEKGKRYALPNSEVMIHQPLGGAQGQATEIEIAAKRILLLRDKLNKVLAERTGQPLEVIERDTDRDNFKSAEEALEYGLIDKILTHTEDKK
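Buffer: 100 mM Tris/HCl pH8, 100 mM KCl, 0.05% low protease BSA, 2.5% glycerol, 0.01% Tween-20. ClpP 10 microg/mL final; 20 min RT; delta FRET normalized to ADEP and DMSO controls.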
Sfp PPTase inh: inhibitors of Bacillus subtilis Sfp phosphopantetheinyl transferase; Potency, µM, for the others: max response, negative = inhibition, usual class: inhibitors; 3.5% of 310,000 active; Biochemical Sfp PPTase activity, qHTS; active = well fitted inhibition curve with a large enough effect; inconclusive = small, poorly fitted or top-dose-only effect, or another doubt; inactive = no such curve, though single readings can be large or run the other way;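 also: the enzyme is Sfp with the accession as filed and its product quenches rhodamine fluorescence; potency is read from the fitted curve at half-maximal effect; 0% = enzyme reaction without inhibitor and -100% = no enzyme wells; top concentration of the series not given in the record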
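Fluorescence-quenching assay with 15 nM Sfp, 5 uM rhodamine-CoA and 12.5 uM BHQ-2-labelled ybbR peptide in pH 7.6 Hepes/MgCl2 buffer. Enzyme was pre-incubated with compound for 15 min at room temperature. Rate was taken from the 30-min fluorescence change (525/598 nm).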
Menin MLL FP FL: menin-MLL binding inhibition, fluorescein peptide. Fluorescence polarization, fluorescein-MLL peptide displacement from menin. FP activity change, % at 61.4 µM. 290,000 tested, under 10 active; inconclusive = falling polarisation curve, or a change in total fluorescence; inactive = total fluorescence flat and polarisation flat or rising; no compound was filed as active; the % refers to the polarisation; negative = inhibition;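 also: % of control where 0% means no effect; inhibitors lower the polarisation; unlabelled MLL peptide was the positive control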
CtBP-E1A inh: blocks the CtBP interaction with E1A; AID 651724; 0.49% of 340,000 active; activity change, % (concentration not given with the values); AlphaScreen GST-E1A/His-CtBP binding, 1536-well; hits give low values; control for the full effect not named in the record; in the data active means activity change below about -65%; inconclusive means about -30% to -65%; inactive means above about -30%; also: % is scaled to controls: 0 for no effect and ±100 for the full control effect
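AlphaScreen with 125 nM GST-E1A and 125 nM His-CtBP (5X stocks) in Tris pH 8.0, 300 mM NaCl, BSA, Tween 20, TCEP. Compounds preincubated 2 h at 37 deg C, then glutathione donor/nickel acceptor beads added for 1 h at 37 deg C in dark.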
TRPV1 PAM: enhances activation of the human vanilloid receptor TRPV1; Q8NER1; TRPV1-expressing cells, Fluo-8 calcium influx, capsaicin EC20 potentiation; host cell line not named in the record; control for the full effect not named in the record; potentiation, % at 8.33 µM; 0.02% of 320,000 active; active means potentiation above 80%; inconclusive means 30% to 80%; inactive means below 30%; also: 0% is about no effect
Target sequence (Q8NER1 whole entry, looked up): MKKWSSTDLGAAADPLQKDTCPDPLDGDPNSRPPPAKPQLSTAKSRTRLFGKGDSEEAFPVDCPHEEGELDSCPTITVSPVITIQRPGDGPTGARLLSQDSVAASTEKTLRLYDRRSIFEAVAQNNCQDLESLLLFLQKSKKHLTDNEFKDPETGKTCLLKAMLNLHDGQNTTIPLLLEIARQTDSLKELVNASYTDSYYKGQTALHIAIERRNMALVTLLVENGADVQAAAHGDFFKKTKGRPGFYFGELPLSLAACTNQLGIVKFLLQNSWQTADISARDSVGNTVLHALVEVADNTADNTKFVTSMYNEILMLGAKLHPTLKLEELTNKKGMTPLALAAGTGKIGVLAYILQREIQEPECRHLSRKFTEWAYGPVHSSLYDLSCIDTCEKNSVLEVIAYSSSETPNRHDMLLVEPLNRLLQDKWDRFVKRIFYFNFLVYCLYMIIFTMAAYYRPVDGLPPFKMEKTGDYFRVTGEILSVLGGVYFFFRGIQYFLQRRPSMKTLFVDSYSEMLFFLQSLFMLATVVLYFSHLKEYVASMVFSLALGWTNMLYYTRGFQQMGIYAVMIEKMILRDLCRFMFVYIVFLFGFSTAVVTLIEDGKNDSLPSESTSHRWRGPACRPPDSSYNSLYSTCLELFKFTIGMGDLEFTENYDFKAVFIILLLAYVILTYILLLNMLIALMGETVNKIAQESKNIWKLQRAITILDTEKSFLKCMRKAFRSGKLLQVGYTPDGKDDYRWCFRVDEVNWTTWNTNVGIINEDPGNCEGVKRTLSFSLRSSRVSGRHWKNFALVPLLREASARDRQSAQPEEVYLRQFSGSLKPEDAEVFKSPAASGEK
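TRPV1-expressing cells were cultured overnight at 35.5C and loaded with Fluo-8 calcium dye for 40 to 90 min at room temperature. After a 10 s baseline, compound was added and calcium influx was read kinetically for 3 min (ex 480/em 520 nm).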
gsp agonist: gsp mutant agonism; gsp mutant cells, cAMP HTRF, 30 min; control for the full effect not named in the record; 0.13% of 340,000 active; Potency, µM (titrated, usually from 76.9 µM), without a hit: top-dose activation (cAMP increase), hits mostly activators; active = well fitted activation curve with a large enough effect; inconclusive = small, poorly fitted or top-dose-only effect, or another doubt; inactive = no such curve, though single readings can be large or run the other way; cell line not stated here;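 also: phosphodiesterase inhibitor Ro 20-1724 added with compounds to block cAMP breakdown; potency is read from the fitted curve at half-maximal effect; nearly all actives have a fitted effect of over 60% in size; about a fifth of the inactives were tested at one dose only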
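Cells in DMEM/10% FBS with G418 were pretreated with compounds in DMSO plus […] (300 uM stock) for 30 min at 37C. cAMP was measured by HTRF (cAMP-d2 plus anti-cAMP antibody-K) after 30 min at room temperature.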
* marks the source's active call; other numbers are inactive results; & = joins results of further samples; [ ] = dose if it differs, or a comment.

Results for COc1ccc(N2CCN(S(=O)(=O)CCNC(=O)COc3ccc(Cl)cc3)CC2)cc1 ?
gsp antag: 9%; ClpP mod: -2.5%; Sfp PPTase inh: 6%; Menin MLL FP FL: 1.7; CtBP-E1A inh: 3; TRPV1 PAM: 9; gsp agonist: -16%

What do the screens show for `CC(=O)Nc1ccc2nc(NC(=O)COc3ccc(C)cc3)sc2c1`?
gsp antag: -5%; ClpP mod: -0.1%; Sfp PPTase inh: 14%; Menin MLL FP FL: -2.5; CtBP-E1A inh: 1; TRPV1 PAM: -5; gsp agonist: 0%[15.4 µM]

What do the screens show for `CC1C(=O)N(Cc2cn(CC3CCCCC3)nn2)CCS(=O)(=O)N1Cc1ccc(-c2ccc(Cl)c(Cl)c2)cc1` (stereo not given)?
ClpP mod: -1.7%; CtBP-E1A inh: -6; gsp agonist: -61%[inhibitor]

How did O=C(Nc1cccc(-n2cnnn2)c1)c1cnccc1Cl do in these assays?
gsp antag: 8%; ClpP mod: 1.2%; Sfp PPTase inh: 7%; Menin MLL FP FL: -0.5; TRPV1 PAM: -3; gsp agonist: -9%

Results for COc1ccccc1-c1ocnc1C(=O)N1CCN(C(=O)C(c2ccccc2)c2ccccc2)CC1 ?
gsp antag: -17%; Sfp PPTase inh: 89µM*; Menin MLL FP FL: -3.6; CtBP-E1A inh: 2; TRPV1 PAM: 24; gsp agonist: 10%

Results for CC1=C(C(=O)N2CCOCC2)C(c2c(C)cc(C)cc2C)NC(=S)N1 (stereo not given) ?
gsp antag: 11%; Sfp PPTase inh: -3%; Menin MLL FP FL: -2.2; CtBP-E1A inh: -1; TRPV1 PAM: 2; gsp agonist: inconclusive

What do the screens show for `COc1ccccc1NC(=O)CSc1nnc(-c2ccc(C)cc2)o1`?
gsp antag: 1%; ClpP mod: 2.6%; Sfp PPTase inh: 1%; Menin MLL FP FL: 2.2; CtBP-E1A inh: 4; TRPV1 PAM: -8; gsp agonist: -5%

What do the screens show for `COCCN(Cc1cc2cc(C)cc(C)c2nc1Cl)C(=O)Nc1ccccc1`?
gsp antag: 10%; ClpP mod: -6.8%; Sfp PPTase inh: 10%; Menin MLL FP FL: 3.3; CtBP-E1A inh: 1; TRPV1 PAM: 21; gsp agonist: inconclusive

How did O=C(COc1ccc(C(=O)c2ccccc2)cc1)Nc1ncccc1O do in these assays?
gsp antag: -14%; ClpP mod: 0.0%; CtBP-E1A inh: -6; gsp agonist: 4%

What do the screens show for `O=C(NCc1ccco1)C1CCCN1C(=O)Nc1ccccc1[N+](=O)[O-]` (stereo not given)?
gsp antag: 10%; Sfp PPTase inh: 12%; Menin MLL FP FL: -1.4; CtBP-E1A inh: 3; TRPV1 PAM: 13; gsp agonist: -19%

How did COc1cccc(C(=O)Nc2nc(-c3ccncc3)cs2)c1 do in these assays?
gsp antag: -2%; Sfp PPTase inh: inconclusive; Menin MLL FP FL: 4.4; CtBP-E1A inh: -6; TRPV1 PAM: 22; gsp agonist: 15%[15.4 µM]

What do the screens show for `CCC(C)Nc1nc(Cl)nc(NCCOc2ccccc2)n1` (stereo not given)?
gsp antag: 13%; ClpP mod: 28µM*; Sfp PPTase inh: 1%; Menin MLL FP FL: 4.3; CtBP-E1A inh: 3; TRPV1 PAM: 7; gsp agonist: 18%[15.4 µM]

What do the screens show for `C[C@@H]1CN([C@H](C)CO)S(=O)(=O)c2ccc(-c3ccc(C(=O)N(C)C)cc3)cc2O[C@H]1CN(C)C(=O)Cc1ccccn1`?
ClpP mod: -0.2%; CtBP-E1A inh: 3; gsp agonist: -60%[inhibitor]

Results for Cn1c(=NC(=O)C2CC2)sc2cc(F)cc(F)c21 ?
gsp antag: 1%; ClpP mod: -4.5%; Sfp PPTase inh: -3%; Menin MLL FP FL: 1.2; CtBP-E1A inh: 3; TRPV1 PAM: 18; gsp agonist: -50%[inhibitor]

How did O=C(NCCc1ccccc1Cl)C1CCN(S(=O)(=O)c2cccs2)CC1 do in these assays?
gsp antag: -3%; ClpP mod: -1.1%; Sfp PPTase inh: inconclusive; Menin MLL FP FL: 1.0; CtBP-E1A inh: 11; TRPV1 PAM: -11; gsp agonist: -2%

Results for Cc1oc(-c2ccccc2F)nc1CS(=O)(=O)CC(=O)N1CCc2ccccc21 ?
gsp antag: -8%; ClpP mod: 0.8%; Sfp PPTase inh: 12%; Menin MLL FP FL: 0.2; CtBP-E1A inh: 2; TRPV1 PAM: 28; gsp agonist: inconclusive

How did COc1ccc(C2=NOC(Cn3nc(C(=O)NCc4cccc(C(F)(F)F)c4)cc3-c3ccccc3)C2)cc1 (stereo not given) do in these assays?
gsp antag: -9%; ClpP mod: -8.2%; CtBP-E1A inh: 0; TRPV1 PAM: inconclusive

How did CC(C)CCNC(=O)c1ccc(-c2ccccc2)cc1 do in these assays?
Sfp PPTase inh: 5%; Menin MLL FP FL: 1.0; TRPV1 PAM: -9

Results for CCCCOC(=O)Nc1nnc(/C=C/c2ccc(OC)cc2)s1 ?
gsp antag: 11%; ClpP mod: 32µM*; Sfp PPTase inh: 7%; Menin MLL FP FL: 1.4; CtBP-E1A inh: 4; TRPV1 PAM: -3; gsp agonist: 36%

What do the screens show for `O=Cc1c[nH]c2ccc(S(=O)(=O)N3CCCCC3)cc12`?
ClpP mod: -0.1%; CtBP-E1A inh: -7; gsp agonist: -48%[inhibitor]

How did COc1cccc(OC)c1C(=O)NC(=S)Nc1ccc(N2CCOCC2)c(Cl)c1 do in these assays?
gsp antag: -1%; Sfp PPTase inh: 15%; Menin MLL FP FL: -0.1; CtBP-E1A inh: 5; TRPV1 PAM: 4; gsp agonist: -11%[15.4 µM]

Results for Cc1ccc2c(c1)c1c(c(=O)n(-c3ccccc3C)c(=O)n1CC(=O)NCC1CCCO1)n2C (stereo not given) ?
gsp antag: -30%; ClpP mod: 3.9%&4.1%; Sfp PPTase inh: 15%; TRPV1 PAM: 1; gsp agonist: inconclusive

Results for CCCC(C)c1nnc(NC(=O)CCS(=O)(=O)Cc2ccccc2)s1 (stereo not given) ?
gsp antag: 11%; ClpP mod: -0.2%; Sfp PPTase inh: 50µM*; Menin MLL FP FL: -7.4; CtBP-E1A inh: -17; TRPV1 PAM: 3; gsp agonist: -13%[15.4 µM]

How did Cc1cc(C)n(-c2nc3c(c(=O)n(C)c(=O)n3C)n2C)n1 do in these assays?
gsp antag: 11%; ClpP mod: -2.3%; Sfp PPTase inh: -7%; Menin MLL FP FL: 3.2; CtBP-E1A inh: 8; TRPV1 PAM: -3; gsp agonist: -1%

What do the screens show for `COc1ccc(Cn2c(=O)[nH]c3cc(C(=O)N4CCN(c5ccccn5)CC4)ccc3c2=O)cc1`?
gsp antag: -3%; Sfp PPTase inh: 7%; Menin MLL FP FL: -1.0; CtBP-E1A inh: -1; TRPV1 PAM: -4; gsp agonist: 11%

How did O=C(O)C1C(c2ccccc2)C(C(=O)Oc2ccccc2)C1c1ccccc1 (stereo not given) do in these assays?
gsp antag: 2%; ClpP mod: 0.4%; Sfp PPTase inh: 10%; Menin MLL FP FL: -0.8; CtBP-E1A inh: -1; TRPV1 PAM: -11; gsp agonist: -47%[inhibitor]

How did CCNC(=S)N1CCN(CC(=O)Nc2ccc(OC)cc2)CC1 do in these assays?
gsp antag: 4%; ClpP mod: -5.3%; Sfp PPTase inh: -3%; Menin MLL FP FL: -1.0; CtBP-E1A inh: 9; TRPV1 PAM: -12; gsp agonist: -3%[15.4 µM]

Results for CC1CN(C(=O)C2(C)CC2(Cl)Cl)CC(C)O1 (stereo not given) ?
gsp antag: 16%; ClpP mod: -4.3%; Sfp PPTase inh: 6%; Menin MLL FP FL: -0.4; CtBP-E1A inh: 1; TRPV1 PAM: 2; gsp agonist: -10%

Results for Cc1ccc(C(=O)n2nc(-c3cccnc3)nc2N)cc1 ?
gsp antag: 1%; ClpP mod: -5.1%; Sfp PPTase inh: -3%; Menin MLL FP FL: 2.7; CtBP-E1A inh: 4; TRPV1 PAM: 11; gsp agonist: -10%

Results for Nc1ccc(-n2cc(-c3ccccc3)[nH]c2=S)cc1 ?
gsp antag: -9%; ClpP mod: -11%; Sfp PPTase inh: 35µM*; Menin MLL FP FL: -0.9; CtBP-E1A inh: -4; TRPV1 PAM: 6; gsp agonist: -5%

Results for O=C(Cn1cnc2cc([N+](=O)[O-])ccc2c1=O)Nc1ccc(Br)cc1 ?
gsp antag: -19%; ClpP mod: 1.1%; Sfp PPTase inh: 2%; Menin MLL FP FL: -0.4; TRPV1 PAM: 8; gsp agonist: 20%

What do the screens show for `Cc1ccccc1Cn1ccc(NC(=O)c2cc3ncc(Br)cn3n2)n1`?
gsp antag: -4%; ClpP mod: -0.4%; Sfp PPTase inh: 8%; Menin MLL FP FL: 6.2; TRPV1 PAM: -9; gsp agonist: 22%

Results for CCc1nc2ccccc2nc1N1CCN(S(=O)(=O)c2ccccc2)CC1 ?
gsp antag: -2%; Sfp PPTase inh: 5%; Menin MLL FP FL: 1.2; CtBP-E1A inh: 8; TRPV1 PAM: -7; gsp agonist: 13%

What do the screens show for `CCC(=O)c1cc(F)c(N2CCN(C(=O)c3ccco3)CC2)cc1C`?
gsp antag: -16%; ClpP mod: 0.5%; Sfp PPTase inh: -8%; Menin MLL FP FL: 3.5; CtBP-E1A inh: -5; TRPV1 PAM: -37; gsp agonist: inconclusive

Results for COc1ccc2nc(NC(=O)CS(=O)(=O)c3ccc(C)cc3)sc2c1 ?
gsp antag: -12%; Sfp PPTase inh: -1%; Menin MLL FP FL: 2.7; CtBP-E1A inh: 2; TRPV1 PAM: 4; gsp agonist: 1%

What do the screens show for `Cc1cccc(NC(=O)CCCc2ccccc2)c1C`?
gsp antag: -3%; Sfp PPTase inh: 8%; Menin MLL FP FL: 8.2; CtBP-E1A inh: -1; TRPV1 PAM: -6; gsp agonist: -98%[inhibitor]
